Screening data: PubChem, Center for Chemical Genomics, University of Michigan
CDC25B CDK2 inh: primary biochemical HTRF screen for blockers of M-phase inducer phosphatase 2 binding to CDK2/cyclin A; z-score (test concentration not listed); hit rate 0.72% among 94,000; AID 1259370, 2018; HTRF CDC25B-CDK2/CyclinA binding, anti-His/anti-Flag; stronger effect = higher value; P30305+P24941;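 note: score is relative to mean and SD of negative controls; strong numbers were not always called active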
TAR Tat displ: TAR RNA-Tat peptide displacers, HIV-1, primary screen, biochemical, FRET, FAM/TAMRA-labeled Tat; hit rate 0.6% among 100,000; z-score (concentration not given with the values); AID 1259389, 2018; HIV-1 TAR RNA, Tat peptide displacement FRET; stronger effect = higher value;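 note: score is relative to mean and SD of negative controls; some compounds called inactive have numbers as strong as hits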
Active calls of the source: *; . = not tested or not shown.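 Rule for the calls: active = z-score from 3 up in half or more of its runs; inactive = the rest.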 Compounds as they come; any-hit rate near 0.9%.

Each structure is followed by: CDC25B CDK2 inh	TAR Tat displ
Fc1ccc(Nc2ncnc3c2nc2n3CCCC2)cc1Cl
 : .	1.8
CCC(=O)N1c2ccccc2-c2nnc(SC)nc2OC1c1ccc2c(c1)OCO2 (configuration not stated)
 : -2.4	-0.22
Cc1nn2c(=O)cc(CSc3nnc(NC(=O)c4ccccc4C)s3)nc2s1
 : .	1.3
CN(C)CCNC(=O)c1cc2c(=O)n(C)c3cc(Cl)ccc3c2s1
 : -2.2	.
CCOc1cc(C=C2C(=O)NC(=S)NC2=O)ccc1OCCSc1cccc2ccccc12
 : -2.3	.
COC(=O)c1cc2ccsc2n1Cc1ccccc1
 : -1.2	-1.7
CC1(C)CC(=O)N(CC(=O)NC2CC2)c2ccccc2S1(=O)=O
 : -2.3	.
CN(C)CC(=O)N1c2ccccc2Sc2ccc(Cl)cc21
 : -1.4	.
CCOC(=O)N1CCN(C(=O)c2cc3c(=O)[nH]c4ccccc4c3n2C)CC1
 : -1.9	2.6
CSc1s[s+]c(SC)c1-c1ccccc1
 : -2.8	.
CCC(C)(C)Nc1c(-c2ccccc2)c(=O)c1=O
 : .	1.6
Cc1ncc(-c2ccc(S(=O)(=O)Nc3ccc(Cl)cc3)cc2)o1
 : .	0.69
Cc1ccc(C(CNC(=O)c2cc(=O)c3ccc(Br)cc3o2)N2CCCCC2)o1 (configuration not stated)
 : -1.7	-3.2
CCSc1nnc(NC(=O)CSc2ncnc3ccccc23)s1
 : -1.1	-0.13
CC1CCc2onc(C(=O)N3CCN(C4CCCCC4)CC3)c2C1 (configuration not stated)
 : .	1.5
Cc1nnc(NC(=O)c2nn(-c3ccc(Cl)cc3)ccc2=O)s1
 : -0.49	-0.9
Cc1csc(SCCn2c(N3CCOCC3)nc3c2c(=O)[nH]c(=O)n3C)n1
 : -0.87	.
Nc1ncnc2nc(SCc3ccc(Cl)cc3)[nH]c12
 : 1	0.57
O=C(Nc1ccc2c(c1)OCO2)c1c[nH]c(=O)n(-c2ccccc2)c1=O
 : .	1.6
Cc1ccc(CSc2nc(-c3cccs3)nc3c2c(=O)n(C)c(=O)n3C)cc1
 : -1.5	.
CCN1CCc2c(sc(-n3cccc3)c2C(C)NC(=O)Nc2cccc3c2CCCC3)C1 (configuration not stated)
 : .	-5.7
CCc1ccc(S(=O)(=O)NCCc2cn3ccc(C)cc3n2)cc1
 : -0.88	.
Cn1cnc2c(=O)oc3ccc(S(=O)(=O)Nc4cccc(F)c4)cc3c21
 : .	1.4
C=CCn1c(Cc2ccc(OC)cc2)nc2ccccc21
 : -0.57	0.69
O=C(CSc1ccc2nnc(-c3ccc(F)cc3)n2n1)Nc1ccc(Br)cc1
 : -7.2	.
Cc1nc(SCC(=O)OCC(C)C)cc(-c2ccccc2)n1
 : -1.2	1.2
O=C(CSc1nnc(-c2ccncc2)o1)N1CCc2ccccc21
 : -3.2	.
CC(C)c1ccc(-n2nnc(-c3nc(-c4ccc(Br)cc4)no3)c2N)cc1
 : .	0.41
C=CCNC(=O)c1nn(-c2ccc(Cl)cc2)nc1CO
 : -0.33	-0.65
Cn1nc(C(C)(C)C)cc1C(=O)Sc1ccccc1
 : -0.58	.
Cc1ccc(-n2ncc3c(N4CCCC4)ncnc32)cc1C
 : .	1.9
CC1=C(c2ccc(F)cc2)S(=O)(=O)NC1=NC1CCCC1
 : .	0.61
O=C(Cn1ccc2cc(S(=O)(=O)N3CCCC3)ccc21)NCCN1CCOCC1
 : .	0.91
CCOc1cc(C2C(C(=O)OCCOC)=C(C)NC3=C2C(=O)CCC3)ccc1O (configuration not stated)
 : -3.4	1.1
CCN(CC)C(=O)C1Sc2nnc(-c3ccccc3)n2NC1c1ccc(Cl)cc1 (configuration not stated)
 : -0.38	0.93
CCCCOC(=O)COc1ccc2oc(-c3ccc(OC)cc3)cc(=O)c2c1
 : 0.85	0.77
Cc1ccc(N2C(=O)CSC23CCCCC3)cc1C
 : -1.1	.
O=C(CSc1nc2ccccc2[nH]1)Nc1ncccn1
 : -1.3	1.8
CCOC(=O)c1nc(Nc2ccc(OCC)cc2)c2c(C)noc2n1
 : .	1
Cc1ccc(-c2c(C(F)(F)F)nn3c(NCc4ccccn4)cc(C)nc23)cc1
 : -1.9	-0.19
CCn1c(C(=O)NCCCOC(C)C)c(N2CCCC2=O)c2cc(F)ccc21
 : .	0.79
N#CC1=C2SCN(c3cccc(Cl)c3)CN2C(=O)CC1c1ccc(F)cc1 (configuration not stated)
 : 7.4*	-0.98
Cc1oc2ccc(NS(=O)(=O)c3cccs3)cc2c1C(=O)OC(C)C
 : -0.12	0.43
COCCn1c(SCC(=O)NC2CCCCC2)nc2c(c1=O)SCC2
 : -1.5	0.35
COc1ccc(-c2cc3ncc(C)n3c(Nc3ncccc3C(N)=O)n2)cc1OC
 : -1.5	.
COc1ccc(-c2nc(COc3ccccc3-c3nnc(-c4ccccc4)o3)c(C)o2)c(OC)c1
 : .	0.45
O=C(Cn1c(=O)oc2ccccc21)Nc1ccc(Cl)cn1
 : .	-0.99
OC(CNCc1ccccc1)Cn1nnnc1-c1ccccc1 (configuration not stated)
 : -2.2	-0.88
COc1cccc(/C(C#N)=C/O)c1
 : -1	.
Cc1nnc(NC(=O)CSc2ccc(-c3ccncc3)nn2)s1
 : .	1.4
CCn1nc(C)c(Br)c1-c1nc(CS(=O)(=O)c2ccsc2)no1
 : -1.1	.
CCC(=O)Nc1sc2c(c1C(=O)Nc1ccc(Cl)cc1)CCC2
 : -0.59	0.09
CN1C(=O)C(C)(C)c2cc(S(=O)(=O)N3CCN(c4ccccc4F)CC3)ccc21
 : .	1.4
CC1=C(C(N)=O)C(c2cccc(O)c2)n2nc(SCc3ccccc3F)nc2N1 (configuration not stated)
 : -0.38	0.66
CC(=O)N1N=C(c2ccc(C)cc2)OC1c1ccc(C)cc1 (configuration not stated)
 : -1.5	.
COC(=O)CN1C(=O)CSc2ccc(S(=O)(=O)NC3CCCc4ccccc43)cc21 (configuration not stated)
 : .	-0.26
Cc1ccc(OCc2ccc(-c3nc(C#N)c(NCCN4CCOCC4)o3)o2)cc1
 : -1.8	0.9
COc1ccc(C2CC(=O)C3=C(C2)Nc2ccccc2NC3c2ccc(F)cc2)cc1 (configuration not stated)
 : -2.6	-0.6
O=S(=O)(Nc1ccc(-c2ccc(N3CCCC3)nn2)cc1)c1cc(F)ccc1F
 : .	0.83
Cc1ccc(C)c(NC(=O)Nc2cccs2)c1
 : 1.6	-1

Entries shown so far that contain two or more sulfur atoms (11):
Each structure is followed by: CDC25B CDK2 inh	TAR Tat displ
Cc1nn2c(=O)cc(CSc3nnc(NC(=O)c4ccccc4C)s3)nc2s1
 : .	1.3
CCOc1cc(C=C2C(=O)NC(=S)NC2=O)ccc1OCCSc1cccc2ccccc12
 : -2.3	.
CSc1s[s+]c(SC)c1-c1ccccc1
 : -2.8	.
CCSc1nnc(NC(=O)CSc2ncnc3ccccc23)s1
 : -1.1	-0.13
Cc1csc(SCCn2c(N3CCOCC3)nc3c2c(=O)[nH]c(=O)n3C)n1
 : -0.87	.
Cc1ccc(CSc2nc(-c3cccs3)nc3c2c(=O)n(C)c(=O)n3C)cc1
 : -1.5	.
Cc1oc2ccc(NS(=O)(=O)c3cccs3)cc2c1C(=O)OC(C)C
 : -0.12	0.43
COCCn1c(SCC(=O)NC2CCCCC2)nc2c(c1=O)SCC2
 : -1.5	0.35
Cc1nnc(NC(=O)CSc2ccc(-c3ccncc3)nn2)s1
 : .	1.4
CCn1nc(C)c(Br)c1-c1nc(CS(=O)(=O)c2ccsc2)no1
 : -1.1	.
COC(=O)CN1C(=O)CSc2ccc(S(=O)(=O)NC3CCCc4ccccc43)cc21 (configuration not stated)
 : .	-0.26

The results go on:
smiles	CDC25B CDK2 inh	TAR Tat displ
O=c1cc(CSc2ccccn2)c2ccc(O)cc2o1	-1.7	.
CCCC1c2cccn2CCN1C(=O)Nc1cccc(SC)c1 (configuration not stated)	.	-2.5
O=C1CC(c2ccccc2)Cc2[nH]c(=O)c(-c3nc(-c4ccc(Br)cc4)cs3)cc21 (configuration not stated)	-0.22	-5.3
Cc1ccc(CN[C@H]2CS(=O)(=O)C[C@@H]2S(=O)(=O)c2ccc(C)cc2)cc1	-1.1	-1.2
CC1CCC(NC(=O)CC(C)S(=O)(=O)c2ccc3c(c2)CCN3C(=O)C2CC2)CC1 (configuration not stated)	.	-0.31
CCC(C)N[C@H]1CS(=O)(=O)C[C@@H]1S(=O)(=O)c1ccc(F)cc1 (some centres not stated)	-2.2	-2.3
CCOC(=O)c1c(S(=O)(=O)N2CCN(c3ncccn3)CC2)c(C)n(C)c1C	.	0.35
FC(F)(F)c1cc(C(F)(F)F)n2ncc(-c3nc(-c4ccc(Cl)cc4)cs3)c2n1	-0.83	.
O=C(c1noc2ncnc(N3CCOCC3)c12)N1CCN(c2cccc(Cl)c2)CC1	.	-1.1
CNC(=O)c1cc2sc(Cl)cc2n1C	-1.2	.
CSc1sc(C(=O)NC(=S)Nc2ccccc2Cl)cc1S(=O)(=O)C(C)C	-1.1	.
Cc1csc(NC(=O)C2CCCN(S(=O)(=O)c3cn(C(C)C)cn3)C2)n1 (configuration not stated)	.	2.1
Cc1nnc(NC(=O)CSc2nnc3c4ccccc4n(C)c3n2)s1	-2.1	0.78
CCCc1sc(NC(=O)c2ccccc2[N+](=O)[O-])nc1-c1ccc(C)c(C)c1	0.11	.
CCCN(CCC)C(=O)C1Sc2nnc(C)n2NC1c1ccc(OC)c(Br)c1 (configuration not stated)	-1.4	-1.1
O=C(Nc1nnc(SCc2cc(=O)c3cccc(Cl)c3[nH]2)s1)c1ccco1	.	2.3
Cc1ccc2ncc(C(=O)Nc3cc(C)on3)c(=O)n2c1	-1.9	-1.1
Cc1cccnc1-n1c(C)c(C)c2c1ncn1nc(-c3ccccc3O)nc21	-2.6	1.3
COc1cc2[nH]c(=O)n(CCCCCC(=O)NC3CCCC3)c(=O)c2cc1OC	1.7	-1.1
Cn1c(=O)c2c(nc(CN3CCOCC3)n2CCCO)n(C)c1=O	0.06	0.22
C#CCSc1nc2c(cc1C#N)CCC2	-1.2	.
O=C(c1ccc2c(c1)OCO2)N1CCC(c2ccncc2)CC1	.	1.4
C=CCN(C(=O)Cn1nc(Cc2ccncc2)c2ccccc2c1=O)c1ccccc1	-2	4
O=c1cc(N2CCOCC2)nc2n1CCS2	-1.4	0.55
Cc1nc(-c2ccc(Cl)cc2)nc2[nH]ccc(=O)c12	0.01	.
CCCN1CCN(C(=O)c2sc3nc4n(c(=O)c3c2C)CCCC4)CC1	.	1.5
O=C(NC1CCCC1)c1cccc(Nc2nc3ccccc3n3cnnc23)c1	.	0.56
c1ccc(CN2CCc3nc(Nc4ccc5c(c4)OCCO5)ncc3C2)cc1	.	1.3
CC(C)c1ccc2oc(-c3ccc(N)cc3)nc2c1	-1.5	0.45
CCCCN(C)C(=O)c1sc2nc(C)nc(N3CCOCC3)c2c1C	-0.03	.
O=C1CCCc2cc(S(=O)(=O)NCC3CCN(CCc4cccs4)CC3)ccc2N1	.	0.02
COc1ccc(NC(=O)CC2(CC3=NS(=O)(=O)c4ccccc4N3)CCCC2)cc1OC	.	1.9
CCCCc1nn2c(=O)cc(COC(=O)COc3ccc(Cl)cc3)nc2s1	.	-0.18
CCc1cc2c(N3CCC(C(=O)NCCOC)CC3)ncnc2s1	.	1.8
Cc1sc2ncn(CC(=O)NC3CCCCC3)c(=O)c2c1C	-1.6	.
O=C(Nc1cccnc1)c1cc2n(n1)C(C(F)(F)F)CC(c1ccco1)N2 (configuration not stated)	0.66	-0.11
CCOc1ccc(-c2cc(C(=O)O)c3c(-c4ccc(Br)cc4)[nH]nc3n2)cc1OC	.	3
CCOC(=O)c1csc(-c2sc(SC)c(C(C)=O)c2C)n1	-1.7	.
Cc1oc2ncnc(N3CCOCC3)c2c1C(=O)N(C(C)C)C1CCCCC1	.	1.9
Cc1nn(CC(=O)N2CCCC2)c(C)c1S(=O)(=O)N1CCC(C(=O)N2CCOCC2)CC1	.	1.7
CCc1nc(C)ccc1OCC(=O)O	0.52	1.1
Cc1c(C(=O)N2CCCCC2)c(S(=O)(=O)N2c3ccccc3CC2C)c(C)n1C (configuration not stated)	.	-1.3
Cc1cc(=O)n2ncnc2n1CC(=O)NNC(=S)Nc1ccc(Cl)cc1Cl	-1.3	.
O=C1CC2C3C=C(Br)C4C3CC2C14 (configuration not stated)	-1.8	.
COc1ccc(C2C3=C(CCCC3=O)Nc3nc(SCc4ccc(C(=O)O)cc4)nn32)cc1 (configuration not stated)	-1.3	-0.35
Cn1nnc2c(NCCCc3ccccc3)ncnc21	.	0.15
COc1ccc(Nc2nc3ccccc3n3c(C)nnc23)cc1Cl	-1.4	0
Cc1nn(-c2ccc(Cl)cc2)cc1-c1noc(C(=O)NC2CCCC2)n1	.	1.2
COc1ccc(-n2nnc3c(=O)[nH]cnc32)cc1	-0.55	0.01
CN(C)c1ccc(C(=O)NCCCCCCC(=O)NO)cc1	.	0.93

Carrying on.
smiles	CDC25B CDK2 inh	TAR Tat displ
COC(=O)CCCCCCCC(=O)Nc1nnc(C(F)(F)F)s1	-2.2	.
CC(=O)CCC(=O)c1cccs1	-1.4	.
COc1ccc(NC(=O)CSc2nnc(Cc3cccn3C)n2-c2ccc(F)cc2)cc1OC	-1.2	.
O=S(=O)(c1ccc(C2CCCCC2)cc1)N1CCc2ccccc21	0.97	.
Cc1nn2c(=O)cc(COC(=O)COc3ccc(Cl)cc3)nc2s1	.	-2.2
CS(=O)(=O)c1nc(S(=O)(=O)c2ccc(Cl)cc2)c(NCc2ccccc2)s1	-0.04	0
